Screens deposited in PubChem by National Center for Advancing Translational Sciences (NCATS).
LASV entry inh: Lassa virus entry inhibition; Lassa virus pseudotype entry inhibition, cell reporter; control for the full effect not named in the record; Potency, µM (titrated, usually from 37.9 µM), for the others: top-dose activity change, negative = inhibition, usual class: inhibitors; hit rate 1.2% among 300,000; active means well fitted inhibition curve with a large enough effect; inconclusive means small, poorly fitted or top-dose-only effect, or effect the other way; inactive means flat fitted curve, though single readings scatter; tested in HEK293 cells; also: % is scaled to controls: 0 for no effect and ±100 for the full control effect; nearly all actives have a fitted effect of over 50% in size; luciferase read-out
RE007 growth inh: less growth of the S. pombe RE007 Vpr strain; S. pombe RE007 Vpr strain, BacTiter-Glo ATP luminescence, 24 h; control for the full effect not named in the record; Potency, µM (top dose mostly 92.2 µM), for inactives: at the top dose activity change, negative = less growth; hit rate 0.21% among 360,000; AID 651644; active = well fitted falling curve with a large enough effect; inconclusive = small, poorly fitted or top-dose-only effect; inactive = no such curve, though single readings can be large or run the other way;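 also: % is scaled to controls: 0 for no effect and ±100 for the full control effect; nearly all actives have a fitted effect of over 50% in size; the assay follows cell death caused by Vpr and the record does not say whether a fall means rescue or toxicity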
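Fission yeast strain RE007, carrying one chromosomally integrated HIV-1 vpr copy, was seeded at OD 0.01 in PMG+AL medium with 23 nL pinned compound. After 24 h at 30 °C and 99% humidity, viability was read by BacTiter-Glo luminescence.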
Cruzain inh Det: cruzain (T. cruzi) inhibition with detergent; purified cruzain, Z-FR-AMC fluorescence, 0.01% Triton; Potency, µM, for inactives: max response, negative = inhibition, most hits filed as inhibitors; hit rate 0.43% among 200,000;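 also: plate controls were neutral wells for no effect and buffer without enzyme for full effect; nearly all actives have a fitted effect of over 40% in size; top concentration of the series not given in the record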
Target sequence (P25779 123-467 limits assumed): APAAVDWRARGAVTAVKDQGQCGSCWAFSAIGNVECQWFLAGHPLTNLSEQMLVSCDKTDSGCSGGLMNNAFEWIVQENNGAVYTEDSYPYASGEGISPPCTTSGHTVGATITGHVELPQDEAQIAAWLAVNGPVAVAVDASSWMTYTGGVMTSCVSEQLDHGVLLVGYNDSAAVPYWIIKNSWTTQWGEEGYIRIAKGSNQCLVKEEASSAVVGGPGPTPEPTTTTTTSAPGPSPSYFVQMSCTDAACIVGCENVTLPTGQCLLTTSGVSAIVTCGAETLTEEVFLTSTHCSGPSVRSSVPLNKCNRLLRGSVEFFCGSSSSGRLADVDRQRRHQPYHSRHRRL
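Compounds were screened in titration against cruzain (1.5 nM) with 0.01% Triton X-100 to counter colloidal aggregation. Activity was the AMC fluorescence increase over 60 s after adding 2 uM Z-FR-AMC at pH 5.5.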
NS1 function inh: influenza NS1 inhibition; S. cerevisiae slowed by influenza A NS1, growth recovery by OD600; Potency, µM (series often up to 46.1 µM), inactives show at the top dose activity, positive = more growth; hit rate 0.4% among 270,000; AID 2326; active means well fitted rising curve with a large enough effect; inconclusive means small, poorly fitted or top-dose-only effect; inactive means no such curve, though single readings can be large or run the other way; also: nearly all actives have a fitted effect of over 50% in size
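Recovery from NS1-induced slow growth read by OD600 in budding yeast switched to galactose assay medium (pH 6.0, -URA) at 1:100 dilution. Compound 23 nl per well; the matching strain lacking NS1 serves as control.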
Cruzain inh noDet: cruzain (T. cruzi) inhibition without detergent | hit rate 2.3% among 200,000 | purified cruzain, Z-FR-AMC fluorescence, no detergent | Potency, µM, for the others: max response, negative = inhibition, actives largely listed as inhibitors | P25779;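 also: plate controls were enzyme without inhibitor for no effect and buffer without enzyme for full effect; nearly all actives have a fitted effect of over 40% in size; top concentration of the series not given in the record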
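Detergent-free condition (0.00005% Triton X-100) in acetate buffer pH 5.5 with DTT. 1.5 nM enzyme and compound were pre-mixed 15 min, then 2 uM Z-FR-AMC substrate added; reaction progress from fluorescence change between first and third reads (60 s).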
SARS PLP yeast: blocks SARS-CoV papain-like protease in a yeast assay. AID 485353. S. cerevisiae expressing SARS-CoV PLpro, growth rescue; control for the full effect not named in the record. hit rate 0.19% among 330,000. Potency, µM (series often up to 32.9 µM), for inactives: at the highest dose activity, positive = growth rescue; active means well fitted rising curve with a large enough effect; inconclusive means small, poorly fitted or top-dose-only effect; inactive means no such curve, though single readings can be large or run the other way; also: 0% is about no effect; nearly all actives have a fitted effect of over 55% in size; growth read by luminescence after 48 h
Marburg entry inh: blocks Marburg virus binding to or entry into cells. Marburg virus pseudotyped entry inhibition, cell reporter; control for the full effect not named in the record; about a third of the inactives were read at about 46 µM. Potency, µM (titrated, usually from 37.8 µM), without a hit: at the top dose activity change, negative = inhibition, actives largely listed as inhibitors. hit rate 1.8% among 300,000. AID 540276; active = well fitted inhibition curve with a large enough effect; inconclusive = small, poorly fitted or top-dose-only effect, or effect the other way; inactive = flat fitted curve, though single readings scatter; tested in HEK293 cells; about a fifth of its hits are not listed in these tables; also: % is scaled to controls: 0 for no effect and ±100 for the full control effect; luciferase read-out
StopGo reporter: lowers the luciferase signal of an FMDV 2A StopGo reporter; human cells with a luciferase reporter of 2A StopGo recoding; control for the full effect not named in the record; Potency, µM (highest dose often 57.9 µM), for inactives: top-dose signal change, negative = less light; hit rate 1.2% among 410,000; AID 1159524; active = well fitted falling curve with a large enough effect; inconclusive = small, poorly fitted or top-dose-only effect; inactive = no such curve, though single readings can be large or run the other way; tested in HEK293T cells; also: % is scaled to controls: 0 for no effect and ±100 for the full control effect; nearly all actives have a fitted effect of over 45% in size; luciferase light after 4 h
Active calls of the source: *; ? = inconclusive; · = no result given; [ ] = dose if it differs, or a comment. Unless noted, calls follow the shape of the dose curve; as a rule, active = well fitted curve in the direction sought with a large enough effect; inconclusive = small, poorly fitted or top-dose-only effect, or another doubt; inactive = no such curve, though single readings can be large; an effect the other way counts as inactive or inconclusive. Potency is read from the fitted curve at half-maximal effect.

SMILES	LASV entry inh	RE007 growth inh	Cruzain inh Det	NS1 function inh	Cruzain inh noDet	SARS PLP yeast	Marburg entry inh	StopGo reporter
Cc1onc(-c2c(F)cccc2Cl)c1C(=O)NCc1ccccn1	0.0%	3.4%	-0.4%	?	10.8%	8.6%	0.6%	17.2%
CCCC(=O)Nc1nnc(S(=O)(=O)N(C)Cc2ccco2)s1	5.6%	-3.3%	·	-8.4%	·	-4.2%	-1.1%[46.1 µM]	-1.7%
O=C(CC(=O)Nc1ccccc1)Nc1ccccc1	-0.5%	36.2%	·	·	·	·	18.8%[46.1 µM]	58.1%[activator]
Cc1cc(CN2C(=O)c3ccccc3C2=O)on1	25.5%	6.5%	-0.4%	-1.9%	-3.6%	-5.1%	15.7%	-11.7%
COc1cc(NC(=O)C2CC(=O)NC3=C2C(=O)CCC3)cc(OC)c1 (stereo not given)	3.5%	10.9%	0.4%	-0.6%	4.1%	-4.8%	-21.7%	0.1%
COc1cccc(-c2nc(S(=O)(=O)c3ccc(C)cc3)c(N3CCCCC3)o2)c1	?	·	-10.4%	·	5.4%	·	-18.8%[46.1 µM]	5.6%
O=C(NC1CCCCC1)C1CCCN(S(=O)(=O)c2ccc(F)cc2)C1 (stereo not given)	-3.6%	11.8%	·	2.0%	·	0.0%	-0.6%[46.1 µM]	-12.7%
Clc1nccnc1N/N=C/c1ccc(Br)cc1	·	-27.0%	·	-18.3%	·	-5.3%	·	58.2%[activator]
NC(=O)COC(=O)C12CC3CC(CC(O)(C3)C1)C2	-5.1%	13.3%	·	0.1%	·	0.3%	?	3.9%
Oc1c(C(c2ccccc2Cl)N2CCC(O)CC2)sc2nc(-c3ccco3)nn12 (stereo not given)	1.0%[46.1 µM]	·	-1.9%	·	19.7%	·	·	11.8%
CN(CC(=O)Nc1ccccc1Cl)CC(=O)N1CCc2ccccc21	3.7%	0.9%	·	·	·	2.7%	3.5%	0.8%
O=C(CCNS(=O)(=O)c1cccc2nsnc12)NCc1ccc(F)cc1	-6.1%	-7.4%	·	·	·	5.2%	6.7%[46.1 µM]	11.0%
C=CCn1c(CCNC(=O)c2cccs2)nnc1SCC(=O)c1cccc([N+](=O)[O-])c1	-0.4%	-5.0%	0.2%	6.6%	9.9%	2.0%	1.4%	9.3%
CC(C)C(NC(=O)CCNC(=O)c1ccc(C(C)(C)C)cc1)c1nc2ccccc2[nH]1 (stereo not given)	?	-5.5%	·	·	·	-2.2%	?	?
CCC1=Nc2cc(C(=O)NCCCOC)ccc2Sc2ccccc21	?	20.2%	1.3%	-5.1%	?	-0.8%	?	-2.4%
O=C(CSc1nnc(NC(=O)c2ccccc2[N+](=O)[O-])s1)NC1CCCC1	15.9%	-12.1%	·	·	·	·	20.7%	15.7%
Cc1ccc(CNC(=O)C2CCCN2C(=O)Nc2ccccc2)cc1 (stereo not given)	·	11.7%	·	-4.5%	·	-0.1%	·	8.1%
CC(=O)c1cc2c(cc1NC(=O)Cc1c(C)noc1C)OCO2	12.1%	-10.2%	·	·	·	7.1%	-12.1%	-6.4%
CC(C)c1nc2sc3c(=O)[nH]c(=S)[nH]c3c2c2c1CCC2	5.9%	·	-15.2%	?	-7.3%	?	1.3%	·
O=C(CN1CCN(S(=O)(=O)c2ccc(Cl)cc2)CC1)Nc1ccc(F)cc1F	13.1%	3.4%	-2.2%	-21.2%	?	-8.4%	?	13.6%
O=C1c2ccccc2C(=O)N1n1c(=O)[nH]c2ccccc2c1=O	5.7%	-3.0%	4.4%	3.4%	1.8%	·	4.4%	-10.7%
CCN(c1ccccc1)S(=O)(=O)c1ccc(C(=O)NCC(c2ccccc2OC)N2CCCC2)cc1 (stereo not given)	?	-6.4%	·	·	·	·	?	-16.2%
Nc1cc(=O)[nH]c(=S)n1-c1cccc(C(F)(F)F)c1	-1.3%	2.0%	-2.7%	2.0%	11.4%	0.7%	19.5%	10.2%
CCOC(=O)C1CCN(C(=O)COc2ccc(N(C)S(=O)(=O)c3ccc(C)cc3)cc2)CC1	0.3%	7.7%	·	-1.6%	·	0.6%	-3.5%[14.2 µM]	-19.6%
COc1ccc(N(C(=O)Cc2cccs2)C(C(=O)NC2CCCCC2)c2cccn2C)cc1 (stereo not given)	10.9%	-4.5%	4.7%	?	-28.9%	-10.3%	1.9%	30.8%[activator]
Cc1cccc(-c2ocnc2C(=O)Nc2ccccc2NC(=O)c2ccccn2)c1	?	10.6%	·	6.2%	·	-12.1%	?	-0.5%
COCc1[nH]nc2c1C(c1ccnc3ccccc13)C(C#N)=C(N)O2 (stereo not given)	-22.6%	-0.7%	2.1%	2.8%	9.1%	5.3%	-14.7%	21.7%
Cc1ccc(NC(=O)CSc2ncn[nH]2)cc1S(=O)(=O)N1CCOCC1	3.8%[46.1 µM]	26.6%	·	·	·	-0.3%	-7.1%[46.1 µM]	-7.2%
COc1ccccc1NC(=O)c1cc2c(s1)-c1ccccc1S(=O)(=O)C2	?	4.8%	·	-1.8%	·	-4.5%	1.2%	-9.2%
Cc1ccc(-c2nnc(CCC(=O)N(C)Cc3nccs3)o2)s1	?	15.4%	·	2.0%	·	-0.1%	?	0.0%
COc1cc(/C=N/Nc2ccc([N+](=O)[O-])cc2S(=O)(=O)N2CCOCC2)cc(OC)c1OC	-0.8%	3.4%	-6.5%	13.1%	?	2.0%	?	-1.7%
C=CCn1c(C)cc(C(=O)COc2ccc(S(=O)(=O)N3CCCC3)cc2[N+](=O)[O-])c1C	2.0%	12.4%	-1.6%	?	-1.2%	-6.3%	14.2%	-11.7%
Cc1ccc(NS(=O)(=O)c2ccc3[nH]c(=O)c(=O)[nH]c3c2)cc1Cl	27.4%[46.1 µM]	7.2%	·	·	·	1.0%	10.9%[46.1 µM]	7.5%
Cn1c(SCc2ccccc2F)nc2cccnc21	4.6%	-9.9%	0.7%	-32.4%	-1.0%	5.9%	?	20.1%
CCN(CC)C(=O)c1sc2nc(N3CCOCC3)c3c(c2c1N)CCCC3	-9.6%	4.1%	-10.3%	22.5%	-1.5%	2.1%	-17.9%	-12.7%
COc1ccc(NC(=O)CSc2nc3c([nH]c4ccccc43)c(=O)n2-c2ccccc2)c(OC)c1	-29.1%[46.1 µM]	·	-2.5%	·	-2.7%	·	·	-16.4%
CCOC(=O)c1sc(NN=C(C(=O)OC)C(=O)OC)c(C(=O)OCC)c1C	-15.6%	2.0%	-6.0%	-2.3%	?	-6.3%	3.0%	?
C=CCn1c(SCC(=O)N2CCOCC2)nc2sc(CC)cc2c1=O	-4.7%	6.4%	·	·	·	-3.4%	?	?
Cc1nn(-c2ccccc2)c(C)c1/C=N/NC(=O)CSc1nc2ccccc2c(=O)n1-c1ccccc1	?	16.9%	1.1%	19.1%	-28.4%	9.9%	?	-4.3%
COc1ccc(C2=NCC(=S)Nc3ccc(Cl)cc32)cc1Cl	·	11.3%	·	-0.2%	·	-0.9%	·	?
Cc1cc(Cl)ccc1C(=O)C1CCCN(C(=O)c2cncs2)C1 (stereo not given)	·	5.5%	·	-107.1%	·	-50.8%	·	-0.5%
O=C(Nc1ccc(Cl)cc1Cl)c1ccc(-c2ccccc2)cc1	-7.2%	12.6%	0.0%	5.8%	25.1µM*	7.5%	1.7%	18.1%
CCOC(=O)c1ccc(NCn2c(=O)oc3ccccc32)cc1	20.0%	-2.1%	2.7%	-66.2%	-3.1%	-17.3%	?	26.4%
O=C(Nc1ccccc1C(=O)NCc1ccccc1)C1=CSCCO1	·	-2.4%	·	10.0%	·	-5.5%	·	-13.1%
O=S1(=O)CCO[C@H]2Cc3ccccc3[C@H]2N1Cc1ccccc1	·	-8.4%	·	-17.1%	·	-5.6%	·	-8.7%
COc1ccc(-c2nc(C)c(CCNS(=O)(=O)c3ccc(F)cc3)s2)cc1OC	-18.8%[46.1 µM]	·	-13.2%	·	2.0%	·	·	12.0%
CN=C1S/C(=C\c2cccn2-c2cccc(Br)c2)C(=O)N1C	3.2%	-11.0%	·	·	·	·	-8.8%	4.6%
COc1cccc(NC(=O)C2CC(=O)N(C)C(=Nc3cccc(F)c3)S2)c1 (stereo not given)	-2.4%	6.2%	-9.7%	-14.8%	19.9%	0.1%	-15.6%	·
CCOC(=O)/C=c1/s/c(=C/c2ccccc2OC)c(=O)n1CC(=O)N1CCOCC1	-4.6%	15.6%	·	·	·	·	-19.8%	-11.8%
Cc1cccc(N=Nc2c(C)[nH]n(-c3ccccc3)c2=O)c1	-0.9%	20.4%	·	-1.2%	·	-1.0%	0.9%[46.1 µM]	21.8%
CC1(C(=O)NNC(=S)NCC2CCCO2)CC1(Cl)Cl (stereo not given)	-20.6%[46.1 µM]	17.9%	·	-1.4%	·	-4.0%	-2.4%[46.1 µM]	38.5%[activator]
O=C1ON=C(c2ccccc2)/C1=C/c1ccc(-c2ccccc2[N+](=O)[O-])o1	?	32.6%	-19.1%	-0.9%	?	-58.4%	?	28.2µM*
O=C(NC(=S)Nc1ccc2nc[nH]c2c1)c1ccccc1	?	7.8%	·	1.3%	·	23.3%	-0.2%[46.1 µM]	28.2%
Cc1noc(C)c1CSCC(=O)Nc1ccc(S(=O)(=O)C(F)F)cc1	6.3%	-0.4%	·	·	·	2.5%	-8.0%[46.1 µM]	-9.1%
COc1cccc(C(=O)NCC(c2ccc3c(c2)OCO3)N2CCN(c3ccc(F)cc3)CC2)c1 (stereo not given)	?	7.7%	·	·	·	-4.1%	?	?
CCN(CC)c1ccc(/C=N/n2c(-c3ccccc3Br)n[nH]c2=S)cc1	?	10.3%	·	6.5%	·	-2.3%	?	?
O=C(NCC1CC1)Nc1ccccc1	-18.2%[46.1 µM]	-11.8%	·	-1.7%	·	-1.1%	2.2%[46.1 µM]	19.2%
O=C(c1cccc(S(=O)(=O)N2CCCCC2)c1)N1CCCCC1	14.2%	13.0%	2.9%	-1.4%	3.0%	1.1%	24.5%	10.7%

Hits appear at their usual frequency (roughly 4.7% active in at least one column).
